CDC25B CDK2 inh: human CDC25B-CDK2/CyclinA binding inhibition. AID 1259370. actives 0.72% (n = 94,000). HTRF CDC25B-CDK2/CyclinA binding, anti-His/anti-Flag; stronger effect = higher value. z-score (test concentration not listed);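 note: score is relative to mean and SD of negative controls; strong numbers were not always called active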
HIV TAR-Tat: HIV-1 TAR-Tat binding disruption; HIV-1 TAR RNA, Tat peptide displacement FRET; stronger effect = higher value; z-score (no concentration beside the values); actives 0.6% (n = 100,000);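 note: score is relative to mean and SD of negative controls; some compounds called inactive have numbers as strong as hits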
Starred values were filed as active, the others as inactive; x = no result given.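 Rule for the calls: active = z-score from 3 up in half or more of its runs; inactive = the rest.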

Values run as follows: CDC25B CDK2 inh | HIV TAR-Tat
> CNC(=O)Nc1cc(NC(=O)NC)cc(C(F)(F)F)c1
    0.86 | x
> Cc1ccc(Cl)cc1Nc1nc2ccccc2c2nnc(C)n12
    x | 2.5
> O=C(O)c1ccccc1-c1ccccc1C(=O)Nc1ccc(F)cc1
    -0.72 | x
> CCc1ccc(C(=O)c2cn(CC(=O)NC3CCCC3)c3nc(C)ccc3c2=O)cc1
    x | 1.9
> Cc1[nH]n(-c2ccccc2)c(=O)c1C(c1cccnc1)c1c(C)[nH]n(-c2ccccc2)c1=O
    -1 | 0.94
> Cc1ccccc1C(=O)OCc1cc(=O)n2nc(C3CC3)sc2n1
    x | -0.6
> CC1CCN(CC2CCN(C(=O)Nc3ccc4c(c3)OCO4)CC2)CC1
    x | 0.34
> CCCc1nc2nc(C)cc(Nc3ccc(F)cc3F)n2n1
    -0.52 | 0.46
> COC(=O)c1cc2cccc3c2n1CC(C)S3 (stereo not drawn)
    1.2 | 1
> Cc1ccc(S(=O)(=O)N2CCN(C(=O)N3CCOCC3)C2c2ccc(N(C)C)cc2)cc1 (stereo not drawn)
    0.89 | 1.5
> CC1=C(C(=O)Nc2ccc(C(=O)NCc3ccc4c(c3)OCO4)c(Cl)c2)SCCO1
    x | 1.7
> CCCCCOC(=O)C1=C(C)NC2=C(C(=O)CC(C)(C)C2)C1c1ccc(C(=O)OC)cc1 (stereo not drawn)
    -1.4 | -13
> CN1CCN(Cc2nc3c(c(=O)n(C)c(=O)n3C)n2Cc2ccccc2F)CC1
    0.54 | 0.82
> COc1ccccc1-c1noc(-c2cccnc2)n1
    -1.4 | 0.89
> COc1ccc(NC(=O)c2noc3c2CCc2sccc2-3)c(OC)c1
    x | -0.11
> CC1=C(C(=O)OC2CCCC2)C(c2ccccc2Br)C2=C(CCCC2=O)N1 (stereo not drawn)
    -0.63 | 1.4
> C=CCOc1ccc2c(C)c(CC(C)O)c(=O)oc2c1 (stereo not drawn)
    -0.08 | x
> c1nc(NCCN2CCOCC2)c2c3c(sc2n1)CCCC3
    1.2 | 0.1
> CCOC(=O)O/N=C(\C(=O)c1ccccc1)c1ccccc1
    -1.5 | x
> O=C(c1ccc(F)c(Cl)c1)c1ccc(F)c(Cl)c1
    -1.9 | x
> Cc1ccc2oc(-c3cc(NC(=O)c4cc5ccccc5o4)ccc3O)nc2c1
    -2.8 | x
> CCNc1cc(NC(C)C)nc(Oc2ccc(OCC(=O)OC)nn2)n1
    0.34 | -0.75
> O=C(Cn1c(=O)n(Cc2ccco2)c(=O)c2sc3ccccc3c21)Nc1ccc(Cl)cc1
    0.3 | 1.4
> Cn1c(C(=O)N2CCC(C(=O)NC3CC3)CC2)cc2sccc21
    0.36 | 0.92
> Cc1cc(Br)ccc1S(=O)(=O)Nc1c(-n2cnnc2)n[nH]c1C
    -1.4 | 0.7
> Cc1ccc(NS(=O)(=O)c2ccc(-c3cnc(C4CC4)o3)cc2)c(Cl)c1
    x | 2
> CC(C)C(=O)N(c1ccc2oc(=O)sc2c1)S(=O)(=O)c1cccs1
    -2.8 | 0.34
> O=C1CC(c2ccc(O)cc2)c2cc(Br)c3ccccc3c2N1 (stereo not drawn)
    -2.3 | -0.45
> COc1cnc(CSc2ccccc2)cc1OCC(=O)NC1CCCCC1
    x | 0.45
> CN(C(=O)CC(=O)Nc1ccc2nc3n(c(=O)c2c1)CCCCC3)c1cccc(Cl)c1
    -0.6 | 0.18
> CCCC12CN3CC(CCC)(CN(C1)C3c1ccccc1C)C2=O (stereo not drawn)
    0.23 | x
> CC1=C(c2ccc(C)c(C)c2)S(=O)(=O)NC1=NCC(=O)NCc1ccc(C)o1
    0.46 | -0.07
> CCOc1ccc(-c2cccc(NS(=O)(=O)c3cc(C)c(C)cc3OC)c2)nn1
    x | 0.73
> Cc1nc(-c2ccccc2)sc1-c1nnc(C2CC2)o1
    -0.44 | x
> Cc1ccc2c(=O)c(C(=O)c3ccccc3Cl)coc2c1
    -1.5 | -0.31
> CC(C)c1ccc(NS(=O)(=O)c2cccc3cccnc23)cc1
    -0.15 | x
> CCn1cc(S(=O)(=O)c2ccccc2)c(=O)c2cc(F)c(N3CCC(C)CC3)cc21
    x | 0.24
> Cc1cccc(NC(=O)N2c3ccccc3NC3=C(C(=O)CC(C)(C)C3)C2c2ccco2)c1C (stereo not drawn)
    x | 0.41
> CC1(C)C(=O)N(CNc2ccc(F)cc2)C(=O)N1C(=O)c1ccc(Cl)cc1
    -1.1 | x
> Cc1oc2ncn3nc(-c4cc(-c5ccc(F)cc5)n[nH]4)nc3c2c1C
    x | 3.7
> Cc1ccc2cc(NC(=O)c3ccc(C(F)(F)F)nc3C)ccc2n1
    -2.1 | x
> COc1ccc(C2CC(c3cccnc3)Nc3nnnn32)c(OC)c1OC (stereo not drawn)
    -2.2 | x
> S=c1[nH]nc(-c2ccncc2)n1CCc1ccccc1
    -0.8 | x
> O=C(CN1CCN(c2nc3cc(Cl)ccc3s2)CC1)c1cc(-c2ccccc2)no1
    -0.86 | x
> CCCCOC(=O)CCc1nc2ccccc2[nH]c1=O
    -1.3 | -1.1
> Cc1ccc(CSCC(=O)N/N=C/c2ccccc2[N+](=O)[O-])cc1
    -0.65 | x
> Cc1c(C(=O)NCCCOC(C)C)sc2nc3n(c(=O)c12)CCCCC3
    x | 1.7
> O=C(Nc1cnc2sc3cc(F)ccc3n2c1=O)c1ccc(F)cc1
    -0.49 | 1.8
> Cn1c(=O)c(SCC(=O)O)nc2cccnc21
    -3.2 | -0.42
> Cc1cc(C)cc(N2C(=O)CC(Nc3ccc(N4CCOCC4)cc3)C2=O)c1 (stereo not drawn)
    1.5 | 0.07
> CCOc1ccc(C2C3=C(CC(C)(C)CC3=O)NC3=C2C(=O)CC(C)(C)C3)cc1Br
    -0.4 | x
> O=C(c1ccc(CS(=O)c2cccc(Cl)c2)o1)N1CCN(C2CCCCC2)CC1 (stereo not drawn)
    x | 1.5
> CCOC(=O)c1[nH]c(C)c(CN(Cc2ccco2)C(=O)c2cc(C(C)(C)C)[nH]n2)c1C
    x | 0.82
> CC1(C)Cc2ccccc2C(NC(=O)Nc2cccc(Cl)c2)=C1C#N
    -1.7 | 1.6
> N#C/C(=C\c1ccccc1)C(=O)C1CC1
    -1.8 | x
> O=C1NN=C(c2ccccc2)/C1=C1\SC(C(=O)c2cccs2)=NN1c1ccccc1
    0.73 | x
> Cn1c(NCCCO)nc2c(c1=O)C1(CCCCC1)Cc1ccccc1-2
    1.4 | -0.17
> O=C(Nc1ccc(NC(=O)c2sc3ccccc3c2Cl)cc1Cl)c1ccco1
    -2.5 | x
> COc1ccc2c(c1)CCC1C2CC[C@@]2(C)C1CC[C@@H]2O (stereo partly drawn)
    x | -1
> COc1ccc(OC)c(-c2ccn[nH]2)c1OCc1ccccc1
    -0.58 | x

Next entries follow.
Values run as follows: CDC25B CDK2 inh | HIV TAR-Tat
> Cc1nnc(N2C(=O)C(O)=C(C(=O)c3cccs3)C2c2ccc(F)cc2)s1 (stereo not drawn)
    1.2 | 2
> CCC(C)(C(=O)NC1CCCCC1)N(Cc1cccs1)C(=O)CC1NC(=O)NC1=O (stereo not drawn)
    0.66 | x
> CNc1nc2ccc(C(=O)c3ccccc3)cc2n2c(C)nnc12
    x | 0.86
> Cc1cc(C)c2oc(C(=O)Nc3c(C)n(C)n(-c4ccccc4)c3=O)cc(=O)c2c1
    0.65 | 0.28
> COc1ccccc1NCc1cccn1-c1nnc(N2CCCC2)s1
    x | 1.8
> CC(C)(C)NC(=O)c1nn2c(C(F)(F)F)cc(-c3ccccc3)nc2c1Cl
    -0.65 | 0.59
> O=C(CSCc1cnn(-c2ccccc2)c1-n1cccc1)NCc1ccco1
    -0.81 | 1.6
> Cc1nc(S(=O)(=O)NC2CCS(=O)(=O)C2)cn1C (stereo not drawn)
    -0.33 | x
> COc1cc(Cl)c(NS(=O)(=O)c2cc(-c3cc(C)no3)ccc2OC)c(OC)c1
    x | 0.81
> Cn1cc(NC(=O)N(Cc2ccco2)CC2CCCO2)c2ccccc2c1=O (stereo not drawn)
    x | -0.99
> CC(C)c1cc(C(=O)N2CCC(c3nc4ccccc4s3)CC2)nn1C1CCS(=O)(=O)C1 (stereo not drawn)
    -2 | -0.04
> COCCNc1oc(-c2ccco2)nc1S(=O)(=O)c1ccc(Br)cc1
    x | 1.6
> O=C(Cc1ccc(NC2=NC3CS(=O)(=O)CC3S2)cc1)NCCCN1CCOCC1 (stereo not drawn)
    -0.23 | 0.14
> O=C(CSc1nnnn1-c1ccccc1)Nc1ncc2c(n1)CC(c1ccccc1)CC2=O (stereo not drawn)
    -1.4 | 0.9
> O=C1c2cccc3cccc(c23)C(=O)N1CCNCCO
    -0.23 | x
> Cc1ccc(C(=O)NCC2CCCO2)cc1NC(=O)C1=CSCCO1 (stereo not drawn)
    x | 1.9
> Cc1nc(-c2ccc(S(=O)(=O)N3CCC(c4ccccc4)C3)cc2)co1 (stereo not drawn)
    x | -0.65
> Nc1c(-c2nc(-c3cccs3)no2)nnn1-c1ccccc1
    x | 0.59
> O=C1NC(c2ccc(F)cc2)C(C(=O)c2ccccc2)C(O)(C(F)(F)F)N1 (stereo not drawn)
    0.28 | x
> N#CC1=C(N)Oc2n[nH]c(-c3ccc4c(c3)OCO4)c2C1c1cccnc1 (stereo not drawn)
    -2.3 | x
> O=C(CSc1nnnn1-c1ccccc1)Nc1nc2c(s1)CCCC2
    -1.9 | x
> COC(=O)CSc1nnc(-c2ccc(OC)cc2)o1
    -1.3 | -3.2
> O=C(CN1CCC2(CC1)OCCO2)c1ccc2cc[nH]c2c1
    -1.1 | x
> Cc1cccc(Nc2nc(N(C)C)nc3c2cnn3C)c1
    x | 1.2
> Cc1nc(C#Cc2cccnc2)cs1
    -1.3 | x
> O=C1C2C3C=CC(CC3)C2C(=O)N1c1nccs1 (stereo not drawn)
    -0.07 | x
> Cc1cc(C)cc(N2CN=C3SCC(=O)N3C2)c1
    -0.05 | x
> CCCCCCCOC(=O)C1=C(C)Nc2ncnn2C1c1ccccc1F (stereo not drawn)
    -1.3 | -1.4
> CCOc1ccc(NS(=O)(=O)c2ccc3c4c2CC(=O)N4CC(C)S3)cc1 (stereo not drawn)
    x | -0.13
> CCCCNC(=O)C1=C(C)C(=O)OC12CCN(S(=O)(=O)CC)CC2
    x | 0.63
> N#CC1=C(SCc2ccccc2)SC(c2ccc(C(=O)O)cc2)NC1=O (stereo not drawn)
    -1.2 | 3.2
> Cn1c(C(=O)N2CCOCC2)cc2sc(Cl)cc21
    -2 | x
> COc1cc(OC)cc(-c2cc3nc(C)c(CCC(=O)NC(C)c4cccs4)c(C)n3n2)c1 (stereo not drawn)
    -1.8 | x
> COc1ccc(-c2cc(-c3nnc(N)o3)no2)cc1
    -1.6 | 0.8
> CNc1nc2[nH]c(=O)cc(O)c2s1
    1.8 | -1.5
> Cc1ccc(Cn2nc(C)c3c(C)onc3c2=O)cc1
    x | 0.2
> Nc1ccccc1C(=O)NC1CCCCNC1=O (stereo not drawn)
    -1.3 | x
> Cn1c(C(=O)NCCc2c[nH]c3ccccc23)cc2sccc21
    -1.2 | -1.8
> CCC12CN3CC(CC)(CN(C1)C3c1ccccc1F)C2=O (stereo not drawn)
    0.55 | -1.2
> CSc1cccc(NC(=O)C2CC3CSCN3C23C(=O)N(C)c2ccccc23)c1 (stereo not drawn)
    x | 1.1
> CCc1nn2c(=O)cc(CSc3nnc(-c4cccc(Cl)c4)o3)nc2s1
    1.3 | 1.5
> Cc1ccc(CNS(=O)(=O)c2cc3c4c(c2)CCN4C(=O)CC3)cc1
    x | 2.1
> Cc1nn(C2c3ccccc3Oc3ccccc32)c(=S)s1
    -0.14 | -0.18
> COc1cc(C)c(C(C)C)cc1S(=O)(=O)n1cnc(C)c1
    0.18 | -0.7
> CCCCCC(=O)Oc1ccc(N2C(=O)C3CCCCC3C2=O)cc1 (stereo not drawn)
    -0.51 | -0.45
> Cc1ccc2c(=O)cc(C(=O)N(Cc3ccccc3)C3CCS(=O)(=O)C3)oc2c1C (stereo not drawn)
    -0.53 | 0.67
> Cc1ccc(CSc2nnc(Cn3c(=O)sc4ccccc43)n2C)cc1
    -1.8 | x
> Cc1cc(C)c(S(=O)(=O)N2CCN(c3cc(N(C)C)nc(C)n3)CC2)c(C)c1
    -1.8 | 0.72
> COc1cccc(-c2cnc(NCc3cc(Br)ccc3F)n2C)c1
    0.54 | -1.4
> O=C(c1cc(-c2cccs2)[nH]n1)N1CCN(c2ccc(=O)n(-c3ccccc3)n2)CC1
    x | -0.13
> CCC(Sc1nncn2c1cc1sccc12)C(=O)Nc1ccc(F)cc1 (stereo not drawn)
    x | 2.3
> CC1CCc2c(sc3nc(CCC(=O)NCCC4=CCCCC4)[nH]c(=O)c23)C1 (stereo not drawn)
    x | -1.2
> N#CC1=C(C(N)=O)N=C(c2ccccc2)C(c2ccccc2)N1 (stereo not drawn)
    -0.74 | x
> COc1ccc(Nc2nc(N)nc(CN3CCN(c4cccc(Cl)c4)CC3)n2)cc1
    x | 0.36

A draw from above in order of molecular weight, ascending.
Values run as follows: CDC25B CDK2 inh | HIV TAR-Tat
> Nc1ccccc1C(=O)NC1CCCCNC1=O (stereo not drawn)
    -1.3 | x
> Cn1c(C(=O)N2CCOCC2)cc2sc(Cl)cc21
    -2 | x
> Cn1c(C(=O)NCCc2c[nH]c3ccccc23)cc2sccc21
    -1.2 | -1.8
> CCCCCC(=O)Oc1ccc(N2C(=O)C3CCCCC3C2=O)cc1 (stereo not drawn)
    -0.51 | -0.45
> COc1ccc(Nc2nc(N)nc(CN3CCN(c4cccc(Cl)c4)CC3)n2)cc1
    x | 0.36
> COc1cc(OC)cc(-c2cc3nc(C)c(CCC(=O)NC(C)c4cccs4)c(C)n3n2)c1 (stereo not drawn)
    -1.8 | x

Looked up one by one from the entries so far, three records:
Values run as follows: CDC25B CDK2 inh | HIV TAR-Tat
> COc1ccc(-c2cc(-c3nnc(N)o3)no2)cc1
    -1.6 | 0.8
> Cc1nn(C2c3ccccc3Oc3ccccc32)c(=S)s1
    -0.14 | -0.18
> CCCCCC(=O)Oc1ccc(N2C(=O)C3CCCCC3C2=O)cc1 (stereo not drawn)
    -0.51 | -0.45

Compound activity: PubChem BioAssay, Center for Chemical Genomics, University of Michigan
